Rce1 inh – inhibitors of yeast Ras-converting enzyme; Q03530; yeast membranes, quenched prenylated peptide cleavage fluorescence; calls only; 290,000 compounds, 0.27% hits; AID 2563;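 active = fall in fluorescence gain of 50% or more versus controls, with final raw signal at or below 3038400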;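 also: plate controls were neutral control wells for no effect and wells lacking membranes for full effect; tested at 10 µM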
eIF4H FP inh – inhibitors of RNA binding by human eIF4H. 290,000 compounds, 0.94% hits. AID 2012. Q15056. eIF4H fluorescence polarization binding assay. inhibition, % at 35 µM;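 active = 50% or more with normal probe brightness, or confirmed in later tests; about a fifth of its hits are not listed in these tables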;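 also: calls also rest on retests at 20 µM and on dose response follow-up; 0% = protein and probe with vehicle and 100% = probe without protein; strong numbers were not always called active; many hits fall short of the cut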
PABP polyA inh – PABP-poly(A) binding inhibition. P11940. PABP-poly(A) RNA binding, fluorescence polarization. inhibition, % at 35 µM. 290,000 compounds, 1% hits;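 active = 50% or more with normal probe brightness, or confirmed in later tests; about a fifth of its hits are not listed in these tables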;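 also: calls also rest on retests at 20 µM and on dose response follow-up; controls were probe without protein and protein plus probe with vehicle; some compounds called inactive have numbers as strong as hits; many hits fall short of the cut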
Target sequence (P11940 whole entry, looked up): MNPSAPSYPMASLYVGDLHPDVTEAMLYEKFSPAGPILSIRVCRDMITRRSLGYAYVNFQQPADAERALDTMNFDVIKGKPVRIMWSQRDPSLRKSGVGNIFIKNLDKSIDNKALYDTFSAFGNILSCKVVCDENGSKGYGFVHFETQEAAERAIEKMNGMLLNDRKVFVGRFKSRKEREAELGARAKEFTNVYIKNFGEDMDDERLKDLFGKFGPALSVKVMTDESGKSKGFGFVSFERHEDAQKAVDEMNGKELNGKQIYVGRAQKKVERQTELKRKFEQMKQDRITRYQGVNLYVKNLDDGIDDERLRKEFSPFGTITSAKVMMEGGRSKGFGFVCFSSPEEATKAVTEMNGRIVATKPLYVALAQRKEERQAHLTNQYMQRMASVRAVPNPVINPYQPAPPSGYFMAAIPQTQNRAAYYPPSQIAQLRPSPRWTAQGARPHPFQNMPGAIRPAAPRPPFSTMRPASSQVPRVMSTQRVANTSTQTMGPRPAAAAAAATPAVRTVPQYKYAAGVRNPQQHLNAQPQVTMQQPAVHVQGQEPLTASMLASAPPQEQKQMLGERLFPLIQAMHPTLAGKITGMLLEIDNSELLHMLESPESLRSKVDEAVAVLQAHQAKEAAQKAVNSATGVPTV
CSC inhib – blocks cancer stem cells; cancer stem cell-like cells viability, luminescence; inhibition, % at 7.5 µM; 300,000 compounds, 1.1% hits;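 active = mean at 75% or more and at least half the replicates too; tested in HMLE shEcad cells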;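 also: 0% = median of negative and 100% = median of positive control wells; the first replicate is given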
MT1-MMP act inh – blocks activation of human MT1-MMP. HT1080 RFP-PRO-GFP cells, GFP/RFP ratio fluorescence, overnight; percent of plate control window, DMSO zero. P50281. GFP/RFP ratio change, % at 20 µM. 360,000 compounds, 0.061% hits. AID 651647;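 active = GFP/RFP ratio change of at least 30% with cell ATP level not reduced by more than half and red fluorescence within 50% of control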; also: strong numbers were not always called active
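Compound: 20 µM single dose, 1% DMSO / System: HT1080 RFP-PRO-GFP cells / Controls: DMSO and RFP-L50D-GFP cell wells / Read-out basis: GFP/RFP fluorescence ratio / Schedule: overnight compound exposure at 37 °C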
Env fusion inh – blocks HIV Env-driven cell-cell fusion | HeLa-JRFL Env/CEM21 cell fusion, luciferase | inhibition, % at 12.3 µM | 360,000 compounds, 1.1% hits;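 active = mean replicate inhibition score of at least 50 and every replicate individually at or above 50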;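 also: 0% = plate neutral controls and 100% = maraviroc near 300 nM; one replicate is shown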
UUG fidelity – yeast start codon fidelity modulation; 350,000 compounds, 0.13% hits; activity score, % at 18.7 µM; S. cerevisiae UUG-firefly luciferase reporter, luminescence/redox ratio;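 active = replicate mean at a twofold rise or more, about +100% in these data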;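 also: firefly luciferase made from a UUG start codon reports start codon fidelity; reporter light over untreated wells divided by growth signal over untreated wells; some hits fall short of that in this replicate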
eIF4H FP inh retest – recorded beside eIF4H FP inh, whose call it bears; inhibition, %; compound at 20 µM; confirmation average;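 mean of two retest wells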
PABP polyA inh retest – second read-out of PABP polyA inh, no call of its own (marks repeat the call); inhibition, %; compound at 20 µM; confirmation repeats;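 mean of two retest wells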
MT1-MMP act inh RFP – second read-out of MT1-MMP act inh, no call of its own (marks repeat the call); RFP signal change, %; measured here: RFP expression control read;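 0 = vehicle wells; hits needed this value within 50% of zero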
Starred values were filed as active, the others as inactive; i = inactive; . = not tested or not shown.

The opening 2 entries, to show the layout:
SMILES | Rce1 inh | eIF4H FP inh | PABP polyA inh | CSC inhib | MT1-MMP act inh | MT1-MMP act inh RFP | Env fusion inh | UUG fidelity | others
O=C(CCc1ccc(S(=O)(=O)N2CCOCC2)cc1)Nc1ccccc1F | . | . | . | -11 | -9 | -3 | . | -31
Oc1ccccc1/C=N/NC(=S)NC1CC2CC1C1C=CCC21 (stereo unspecified) | i | 4 | 2 | 100* | 5 | -10 | -33 | -30

Main list, previewed entries included:
SMILES | Rce1 inh | eIF4H FP inh | PABP polyA inh | CSC inhib | MT1-MMP act inh | MT1-MMP act inh RFP | Env fusion inh | UUG fidelity | others
O=C(CCc1ccc(S(=O)(=O)N2CCOCC2)cc1)Nc1ccccc1F | . | . | . | -11 | -9 | -3 | . | -31
Oc1ccccc1/C=N/NC(=S)NC1CC2CC1C1C=CCC21 (stereo unspecified) | i | 4 | 2 | 100* | 5 | -10 | -33 | -30
Cc1nn(-c2ccc(F)cc2)c(Cl)c1C(=O)OC(C)C(=O)N(C)C1CCCCC1 (stereo unspecified) | . | . | . | 4 | -10 | -16 | . | -6
Cc1[nH]nc(SCC(=O)N2CCOCC2)c1[N+](=O)[O-] | i | -4 | -12 | 1 | 0 | 1 | 1 | -16
CSc1ccc(C(=O)C2CCCN(C(=O)c3ccsc3)C2)cc1 (stereo unspecified) | i | 2 | -10 | . | 1 | 0 | 5 | -9
CCC(=O)N1CCN(c2ccc(NC(=O)c3ccc(Br)o3)cc2)CC1 | i | -2 | -6 | -11 | -3 | 0 | 12 | .
Cc1nc2ccccc2[nH]c1=O | i | 0 | -5 | -7 | -3 | -1 | -18 | .
CN(C)c1ccc(NC(=O)C2CCCN(S(=O)(=O)c3ccccc3)C2)cc1 (stereo unspecified) | i | -5 | 0 | -15 | -2 | -3 | -3 | .
Cn1ncc2c(Nc3ccccc3Cl)nc(Cl)nc21 | i | -10 | 4 | -12 | -1 | 1 | 6 | -16
Cc1cccc2c(N=NC(=O)c3ccc(NS(=O)(=O)c4cccs4)cc3)c(O)[nH]c12 | . | . | . | . | 0 | -7 | -1 | -2
CCOC(=O)CNc1nc(Cl)nc(NC(C)(C)C)n1 | i | -4 | 3 | -5 | 3 | -2 | -17 | 17
CCOc1ccc(N(CC(=O)NCc2ccc(Cl)cc2)S(=O)(=O)c2c(C)noc2C)cc1 | i | -6 | 9 | -2 | -6 | -5 | 10 | -15
CCOC(=O)Cc1c(C)nc2c(-c3cccc(Br)c3)c[nH]n2c1=O | i | 18 | 13 | -12 | -3 | 2 | . | -1
C=CCNC(=O)CN(c1ccc(F)cc1)S(=O)(=O)c1ccc(OC)cc1 | . | 3 | 1 | -2 | 0 | 4 | . | -12
CCOc1ccc2nc(C(C)O)[nH]c2c1 (stereo unspecified) | i | -5 | -6 | 7 | 0 | 0 | . | -14
COc1cc(C=NNC(=O)c2ccccc2-n2cccc2)ccc1O | . | . | . | -6 | 1 | 0 | . | -5
CNC(=O)COC(=O)/C=C/c1cccs1 | i | 5 | -4 | 1 | -1 | -2 | -3 | -21
CCCCCN(C(=O)CCC(=O)OCc1ccccc1Cl)c1c(N)n(CCCC)c(=O)[nH]c1=O | i | -7 | -4 | 15 | -16 | -10 | . | 12
O=C(Cc1noc2ccccc12)Nc1ccccn1 | i | 1 | 20 | -4 | 1 | 3 | -28 | .
COc1ccc(OCc2ccc(C(=O)N3CCOCC3)cc2)cc1 | . | -3 | 4 | 7 | 1 | 2 | . | -5
NC(=O)CN1CCN(c2ccccc2F)CC1 | . | -7 | -11 | 19 | -1 | 8 | . | -8
Cc1cc(C)n(CCN(C)C(=O)c2cc(COc3c(F)cccc3F)on2)n1 | i | 3 | -6 | -26 | 1 | 1 | -4 | .
Cc1ccc(CNC(=O)c2ccc3c(=O)n(CCCN4CCCC4=O)c(=S)[nH]c3c2)cc1 | i | 3 | -3 | 7 | 7 | -5 | 17 | -7
Cc1ccc(Cc2c(-c3cccc(Cl)c3)nc3c4ccccc4ccn23)cc1 | . | . | . | . | -4 | 0 | -7 | -18
CC(Sc1ccccc1)C(=O)NN=C1CCCCCC1 (stereo unspecified) | i | -16 | 0 | -9 | 2 | 2 | 11 | .
Cc1cccc(N2C(=O)SC(N(CC(=O)O)c3cccc(C)c3)C2=O)c1 (stereo unspecified) | i | -4 | 10 | -15 | -3 | 10 | -16 | -15
CCNC(=O)NC(=O)C(C)OC(=O)CNS(=O)(=O)c1c(Cl)cc(Br)cc1Cl (stereo unspecified) | i | -6 | -3 | . | -3 | 0 | -3 | .
Nc1ccccc1Oc1ncc(C(F)(F)F)cc1Cl | i | -4 | -9 | . | -2 | 0 | . | -15
Cc1c(C)c2c(OCC(=O)N3CCC(O)CC3)cc3c(c2oc1=O)CCC(C)(C)O3 | . | -5 | -11 | -4 | 0 | 0 | . | -12
O=C(O)CCc1ccc(-c2cccs2)n1CCC(=O)O | i | 49* | 72* | -12 | 2 | 5 | 46 | -4 | eIF4H FP inh retest=93*;PABP polyA inh retest=64*
Nc1nc2ccccc2n1CCOc1ccc(Br)cc1 | i | -6 | -10 | 6 | 8 | -2 | 22 | -11
CCCN(C1CCS(=O)(=O)C1)S(=O)(=O)c1ccc(F)cc1 (stereo unspecified) | i | . | . | -21 | 2 | 0 | -5 | .
O=C(CCCC(=O)OCC(Cl)=C(Cl)Cl)Nc1ccccc1 | i | -3 | 23 | 13 | -1 | 5 | . | .
CSc1nnc(CNS(=O)(=O)c2ccc(Br)cc2)n1C | i | -2 | 2 | -22 | 0 | 3 | -4 | -5
CCO[C@@H]1OC(C(N)=O)=C[C@H](c2ccc3c(c2)OCO3)[C@H]1CCCO | i | -7 | 0 | 16 | 2 | 7 | -14 | -9
O=C(NCC(c1ccco1)N1CCc2ccccc21)c1ccccc1 (stereo unspecified) | i | . | . | -5 | -1 | -3 | -10 | -5
CC(C)(C)C(=O)OCC1OC(n2cnc(C(N)=O)n2)C(O)C1O (stereo unspecified) | i | -7 | -1 | 11 | . | . | . | 13
CCNC(=O)N(C)C[C@H]1N[C@@](C)(C(=O)OC)[C@H]2C(=O)N(C)C(=O)[C@@H]12 | . | . | . | . | -1 | 7 | -12 | -2
CN(C(=O)c1cc2nc(-c3ccco3)cc(C(F)(F)F)n2n1)C1CCCCC1 | i | -5 | 6 | -9 | -10 | -10 | . | -4
O=C(NCc1ccccc1Cl)/C(=C\c1cccnc1)NC(=O)c1ccccc1 | i | 6 | -6 | -5 | 1 | 1 | 4 | -16
CC12CN3CCN(CC(C3)/C1=N/N=C/c1cccc([N+](=O)[O-])c1)C2 | i | -9 | 1 | -8 | 0 | -6 | 7 | .
CC(Nc1n[nH]c(=O)[nH]c1=O)C(=O)N/N=C/c1ccccc1 (stereo unspecified) | i | 0 | 2 | -8 | -1 | 3 | -3 | .
COc1ccc(C2C(C(=O)/C=C/c3ccco3)=C(O)C(=O)N2CCN2CCOCC2)cc1OC (stereo unspecified) | i | 47 | 2 | . | -5 | -1 | 12 | 2
COc1ccc(/C=C(/NC(=O)c2ccccc2)C(=O)NCCN2CCOCC2)cc1OC | i | 0 | -12 | -5 | -3 | 0 | -8 | -1
Cc1cc(N2CCCC2=O)ccc1S(=O)(=O)NCCOc1ccccc1 | i | 16 | 10 | 0 | 3 | -3 | -1 | 19
O=C(CCC(=O)OCc1ccc(Cl)cc1)Nc1ccccc1 | i | -1 | -2 | 6 | 0 | 2 | 8 | 0
CCOC(=O)C1=C(C)N(c2ccc(OCC)cc2)C(=O)/C1=C\c1ccco1 | i | 2 | -11 | 46 | -3 | 2 | 17 | .
N#CCCN(C(=O)COC(=O)c1cccc(S(=O)(=O)N2CCCC2)c1)c1ccc(F)cc1 | i | -2 | -12 | -12 | 3 | 2 | -7 | 14
NC(=O)Cn1nc([N+](=O)[O-])nc1Oc1ccc(Br)cc1 | i | -1 | -1 | -9 | 0 | 1 | -5 | .
CCCCC(O)(c1ccc(CC)cc1)C(CN1CCOCC1)c1ccccc1 (stereo unspecified) | i | -13 | 2 | 31 | -41 | -29 | 35 | -4
O=C(NCc1ccc(Cl)cc1)N1CCN(Cc2ccccc2)CC1 | i | -7 | -3 | -5 | 7 | -2 | 4 | -17
CCc1nc2c(OCC=C(C)C)cccn2c1N(C)C(=O)c1ccc(OC)cc1 | . | . | . | . | 4 | -15 | -9 | -2
C/C=C(\C)CN1CCC(n2nccc2NC(=O)c2ccc3c(c2)OCO3)CC1 | i | -7 | -7 | 3 | 3 | 4 | -4 | -2
CC(=O)Nc1ccc(S(=O)(=O)NNC(=O)c2cccc(Cl)c2)cc1 | i | -7 | 6 | . | 3 | 1 | -2 | 2
CCC(=O)N1c2ccc(S(=O)(=O)CCC(=O)NCc3ccc4c(c3)OCO4)cc2CC1C (stereo unspecified) | i | -2 | -4 | -19 | 5 | 4 | . | 1
COC(=O)CCC(NC(=O)c1cc(-c2ccc3c(c2)OCCO3)oc1C)C(=O)OC (stereo unspecified) | i | -1 | 7 | 19 | 10 | 3 | -39 | -20
Cn1c2ccccc2n2c(=O)c(=O)n(CC(=O)c3ccc(Cl)cc3)nc12 | i | -2 | 5 | -17 | 9 | 2 | . | .
S=C(NC1CCCCC1)N1CCOCC1 | i | -2 | 8 | -18 | 0 | 1 | -8 | .
COCC(=O)N(Cc1cc2ccc(C)cc2[nH]c1=O)c1cccc(C)c1 | i | -5 | 0 | -11 | 0 | -1 | -66 | -4
O=C(Nc1ccc(S(=O)(=O)Nc2ncccn2)cc1)c1cccc(S(=O)(=O)N2CCOCC2)c1 | i | 4 | 1 | -1 | 2 | 7 | -12 | 22

Not a retest: entries from further up.
SMILES | Rce1 inh | eIF4H FP inh | PABP polyA inh | CSC inhib | MT1-MMP act inh | MT1-MMP act inh RFP | Env fusion inh | UUG fidelity | others
NC(=O)Cn1nc([N+](=O)[O-])nc1Oc1ccc(Br)cc1 | i | -1 | -1 | -9 | 0 | 1 | -5 | .
CCCCC(O)(c1ccc(CC)cc1)C(CN1CCOCC1)c1ccccc1 (stereo unspecified) | i | -13 | 2 | 31 | -41 | -29 | 35 | -4
O=C(NCc1ccc(Cl)cc1)N1CCN(Cc2ccccc2)CC1 | i | -7 | -3 | -5 | 7 | -2 | 4 | -17

Later entries:
SMILES | Rce1 inh | eIF4H FP inh | PABP polyA inh | CSC inhib | MT1-MMP act inh | MT1-MMP act inh RFP | Env fusion inh | UUG fidelity | others
COc1ccc(NC(=O)CN2C(=O)NC3(CCCCCC3)C2=O)cc1Cl | . | . | . | -8 | 4 | 1 | . | -14
CC1=C(C(=O)N2CCOCC2)CC(CC(=O)NCc2ccco2)C(=O)N1Cc1ccc(F)cc1 (stereo unspecified) | . | . | . | . | 0 | 7 | 33 | 7
CCOC(=O)/C=C/[C@H]1CCc2cccc(C)c2O1 | . | . | . | 15 | 1 | 1 | -22 | -15
COc1ccc(C(=O)N[C@H](C(=O)Nc2cccc(S(=O)(=O)N3CCOCC3)c2)C(C)C)cc1 | . | . | . | . | -53 | -29 | -19 | -3
COc1cc(C2C(C#N)=C(N)OC3=C2C(=O)CCC3)cc2c1OCO2 (stereo unspecified) | i | 2 | 2 | . | 2 | 0 | -8 | -14
CCc1cccc2c(C#N)cn(CC(=O)NCc3ccco3)c12 | . | 3 | 2 | 30 | 9 | 3 | . | -7
Cn1c(=O)c2cc(S(=O)(=O)Nc3ccc4c(c3)OCO4)ccc2n(C)c1=O | i | -3 | 2 | 19 | -13 | -5 | 41 | -13
O=C(O)CCn1ccc2cc(S(=O)(=O)N3CCCCCC3)ccc21 | i | 0 | 2 | -3 | 1 | 4 | -5 | 6
COc1ccc2ccccc2c1CNCCCN1CCOCC1 | i | -13 | 0 | -6 | -1 | -3 | -1 | .
Cc1nc(Nc2ccc(Cl)cc2)c2oc3ccccc3c2n1 | i | 1 | 13 | 10 | 0 | -3 | 6 | .
Cc1ccc(N(C(=O)CNC(=O)c2ccco2)C(C(=O)NC2CCCC2)c2cccnc2)cc1F (stereo unspecified) | i | -2 | 4 | -3 | 2 | 4 | 10 | -9
